# From PubChem BioAssay
# ALR H2O2 inh – inhibitors of human sulfhydryl oxidase ALR. P55789. purified ALR, DTT oxidation, H2O2 HRP-luminol luminescence. inhibition, % (concentration not given with the values). 290,000 tested, 3.8% active;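 active = mean and each replicate at 75% or more; inconclusive = only one of the two met; inactive = neither met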;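 note: stock transfer was 7.5 nL into about 7.5 µL; 0% = neutral wells and 100% = wells with inactivated enzyme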
# Target sequence (P55789 whole entry, looked up): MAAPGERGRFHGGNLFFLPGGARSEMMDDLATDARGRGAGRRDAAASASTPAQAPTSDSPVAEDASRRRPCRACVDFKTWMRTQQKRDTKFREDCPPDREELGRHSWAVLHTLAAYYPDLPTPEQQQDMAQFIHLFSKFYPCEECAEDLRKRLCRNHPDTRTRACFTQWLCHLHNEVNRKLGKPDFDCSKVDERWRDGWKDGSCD
# T cruzi inh – blocks replication of Trypanosoma cruzi; inhibition, % (no concentration beside the values); T. cruzi beta-gal in NIH3T3, luminescence, 90 h; 300,000 tested, 1.4% active;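 active = mean inhibition across valid replicates above about 55%, limit read from the data; inconclusive = mean below that limit but half or more replicates reach it; inactive = mean below it, under half of replicates reach it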;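 note: signal also drops with host cell toxicity which is not excluded here; 0% = plate median of DMSO wells and 100% = zero luminescence signal; higher percent means less beta-gal luminescence so fewer parasites; stock transfer was 50 nL into about 50 µL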
# rRNA inh HTS – inhibitors of bacterial rRNA selective over humanized ribosomes; E. coli WT GFP vs humanized-ribosome RFP mutants, fluorescence, 24 h; stronger effect = lower value; DMSO median 0, no signal -100; GFP signal change (wild-type ribosome), % (test concentration not listed); 350,000 tested, 1.6% active;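 active = significant combined selectivity score with lowered wild-type GFP, culture density cut under 30%, mutant RFP and density less affected; inactive = any of these conditions unmet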; note: one replicate is shown; some compounds called inactive have numbers as strong as hits
# LANA-H2B inh – blocks KSHV LANA binding to histone H2A/H2B | Q9QR71 | cell-free LANA-H2A/H2B peptide, fluorescence polarization | inhibition, % (test concentration not listed) | 320,000 tested, 0.6% active; in the data active = inhibition mostly above about 10%, no sharp cut-off; inactive = mostly below about 6.7%;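 note: stock transfer was 7.5 nL into about 10 µL; 0% = median of vehicle wells and 100% = median of positive control wells; one replicate is shown; the record names a cut of 25% in any replicate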
# A1 inh – inhibitors of the anti-apoptotic protein A1, read as caspase activation. MEF A1-2A-BIM cells, Caspase-Glo 3/7 luminescence, 3 h; percent of clofoctol response, vehicle zero. caspase activation, % (concentration not given with the values). 330,000 tested, 0.066% active. AID 2462;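 active = over half of replicate activation scores above 10%, or exactly half above 10 with the replicate mean above 10; inconclusive = replicate mean below 10 yet half the replicates above 10; inactive = over half of replicates below 10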;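 note: wells of about 30 µL received 50 nL stock; many hits fall short of the cut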
# Beta apoptosis – beta cell apoptosis inhibition | INS-1E cytokine-induced death, ATP luminescence, 48 h; percent of positive-control rescue, neutral wells zero | protection from apoptosis, % (concentration not given with the values) | 300,000 tested, 0.8% active;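 active = all replicates at 75% or more, or half of them and the mean; inconclusive = half reach 75% but not the mean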;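 note: 0% = cytokine-treated negative control wells and 100% = positive control rescue; higher means more ATP so stronger rescue from cytokine killing; wells of about 40 µL received 100 nL stock; the first replicate is given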
# B2AR ag – human beta-2 adrenergic receptor agonism by FAP; response, % (test concentration not listed); P07550; 340,000 tested, 0.43% active; AID 504454; Am2.2-beta2AR cells, FAP receptor internalization, flow cytometry; reference of the scale not given here;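 active = response above a set limit, near 3 SD of response in nonfluorescent compounds, cut at about 42% in these data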;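 note: stock transfer was 100 nL into about 11 µL; a reference agonist was the positive control; negative values mostly stem from fluorescent compounds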
# Target sequence (P07550 whole entry, looked up): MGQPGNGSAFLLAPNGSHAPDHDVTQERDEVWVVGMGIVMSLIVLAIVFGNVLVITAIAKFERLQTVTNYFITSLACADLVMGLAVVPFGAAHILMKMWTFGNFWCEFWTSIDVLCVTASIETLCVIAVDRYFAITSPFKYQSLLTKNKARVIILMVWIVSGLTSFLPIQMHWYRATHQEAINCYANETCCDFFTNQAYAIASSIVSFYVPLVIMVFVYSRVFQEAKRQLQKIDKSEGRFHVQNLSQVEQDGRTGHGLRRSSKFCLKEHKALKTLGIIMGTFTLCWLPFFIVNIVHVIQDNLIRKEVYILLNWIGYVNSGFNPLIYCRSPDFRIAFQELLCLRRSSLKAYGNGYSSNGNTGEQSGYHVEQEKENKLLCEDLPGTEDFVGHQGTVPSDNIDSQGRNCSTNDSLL
# Calb FLC – affects C. albicans growth with fluconazole; C. albicans CaCi-2 (fluconazole-resistant clinical isolate) + fluconazole, Alamar Blue growth, 48 h; growth inhibition, % (no concentration beside the values); 300,000 tested, 0.57% active;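 active = most replicates above 75%; inconclusive = exactly half above 75%; inactive = most below 75%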;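 note: all wells also contain fluconazole at 8 µg/ml as a sub-toxic cotreatment; 0% = median of DMSO wells and 100% = median of geldanamycin control wells; wells of about 8 µL received 7.5 nL stock; the first replicate is given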
# rRNA inh HTS OD600 – second read-out of rRNA inh HTS, no call of its own (marks repeat the call); OD600 change, %; measured here: OD600 growth;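 optical density of the mix in the first replicate; 0 = DMSO median and -100 = no signal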
# rRNA inh HTS RFP – further read-out of rRNA inh HTS, marked with its call; RFP signal change, %; measured here: RFP humanized mutant strains;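 first replicate; 0 = DMSO median and -100 = no signal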
# * = called active by the depositor; ? = inconclusive; . = no result given; & = joins results of further samples. An excerpt (hit frequency here may not be typical).
SMILES,ALR H2O2 inh,T cruzi inh,rRNA inh HTS,rRNA inh HTS OD600,rRNA inh HTS RFP,LANA-H2B inh,A1 inh,Beta apoptosis,B2AR ag,Calb FLC
O=C(COC(=O)C1CCC(=O)N1)Nc1ccccc1OC(F)F (configuration not stated),-4.4,.,13.8,11.8,1.8,-1.5,0.0,-5.1,-4.8,.
O=C(Nc1ccc(F)cc1)Nn1cnnc1,-3.1,-2.8,15.8,11.3,-1.3,-2.2,0.3,-4.5,-8.3,1.1
CNc1ccccc(C(=O)/C=C/c2ccccc2OC)c1=O,45.0,-4.0,.,.,.,-1.2,0.6,-14.3,-1.4,-6.0
CCOC(=O)c1c(C)cc(=O)oc1C,2.7,5.2,.,.,.,2.4,-0.3,-1.4,6.3,-4.0
COC(=O)c1ccc([N+](=O)[O-])cc1N1C(=O)C2C3CCC(C3)C2C1=O (configuration not stated),.,-0.7,14.9,10.4,-0.3,1.1,-0.7,-0.4,-5.4,15.3
Cc1nn(-c2ccccc2)c(Cl)c1/C=N/NC(=O)c1cccnc1,4.2,6.7,-0.5,2.3,3.3,5.0,0.4,-6.9,50.0*,-2.4
O=S(=O)(Nc1ncccn1)c1ccc(-n2cnnn2)cc1,.,-2.1,12.6,7.5,-4.8,-3.6,0.1,3.1,4.9,-3.5
O=C(NC1(C(=O)NC2CCCCC2)CCCCC1)c1ccc2c(c1)OCO2,-3.0,-18.5,.,.,.,-1.6,0.8,.,-3.2,4.5
CCOCN(C(=O)Cn1c(CO)nc2ccccc21)c1c(C)cccc1CC,-7.9,11.7,.,.,.,3.2,.,0.9,-10.4,5.1
CC(=O)c1ccc(OCCn2c(SCC(=O)O)nc3ccccc32)cc1,-8.5,-5.0,-0.2,-11.4,1.8,2.1,-0.5,0.4,10.9,2.0
CN1CCN(c2nc3c(c(=O)n(C)c(=O)n3C)n2Cc2ccccc2F)CC1,-9.8,12.5,37.5,-4.6,26.9,3.1,0.8,0.7,0.1,18.7
CSCC[C@H](NC(=O)C(C)(C)Oc1ccc(Cl)cc1)c1nc2ccccc2[nH]1,-8.7,-17.8,14.9,-0.8,-0.5,-3.0,0.8,-6.0,7.3,-1.3
Cc1ccc2sc(N(CCCN(C)C)C(=O)c3ccc(S(=O)(=O)N(C)C)cc3)nc2c1C,-6.8,37.9,-9.6,-5.5,1.2,-8.2,0.1,4.5,4.1,-30.5
COC(=O)CNS(=O)(=O)c1ccc(C)cc1,-5.7,7.6,.,.,.,-0.3,-0.2,2.1,-0.6,-0.5
O=C(Nc1ccc(Cl)cc1)c1ccncc1,-1.9,-2.8,.,.,.,0.8,0.7,4.5,-2.9,-3.8
OC(Cn1cccn1)c1ccccc1 (configuration not stated),-9.0,5.9,.,.,.,2.0,0.8,-2.6,-8.5,4.5
Cc1ccc(N2CC(C(=O)N3CCCCCC3)CC2=O)cc1 (configuration not stated),0.7,-2.6,3.8,4.7,-1.6,-3.7,0.2,-3.5,-4.9,-2.2
C=CCOc1ccc(C(=O)Nc2ncn[nH]2)cc1,2.9,-1.8,5.0,10.1,-1.3,-2.6,-2.6,-2.6,-6.1,-21.6
Cc1cc2c(c(=O)o1)C(C1C=CCCC1)C(C#N)=C(N)O2 (configuration not stated),9.9,-12.2,.,.,.,-2.4,0.2,-5.7,4.7,?
Cc1ccc(N2C(=O)C3C4CC(=O)C(c5ccccc54)C3C2=O)cc1C (configuration not stated),.,-5.5,.,.,.,-2.4,-0.2,-9.9,6.8,10.9
Cc1cccn2cc(-c3ccccc3)nc12,.,-9.8,.,.,.,5.6,-8.9,-0.4,-2.0,3.7
COc1ccc(C(C)NC(=O)CCc2ccccc2)cc1 (configuration not stated),.,-6.5,5.2,8.5,-3.1,3.4,0.7,-6.2,-5.3,-5.7
CNc1nc(NC#N)nc(SC)n1,.,0.2,3.0,4.6,-7.6,-2.1,0.1,-1.4,6.4,2.5
COC(=O)CNC(=O)C1CCCN1C(=O)OC(C)(C)C (configuration not stated),-6.9,-20.1,.,.,.,-2.8,-1.1,-1.0,2.2,-21.4
Cc1ccc(-n2ncc3c(N4CCC(C(N)=O)CC4)ncnc32)c(C)c1,-7.5,-0.7,.,.,.,-2.0,0.1,.,0.3,21.3
COc1ccc(N2CCN(C(=O)Cc3ccc(C)cc3)CC2)cc1,79.6*,-6.6,3.6,-6.0,3.7,-1.6,0.5,.,7.0,13.6
Cn1c(=O)c(=O)n(C)c2cc(N3CCCC3)c(NS(=O)(=O)c3ccc(F)cc3)cc21,1.0,-3.9,2.6,3.8,0.6,-7.5,0.0,-20.2,-3.5,-1.0
CCCCCCCCCCCCCCCC[n+]1cccc(C(=O)N(CC)CC)c1,-39.8,43.8,-64.2,-78.9,-19.5,8.1,1.3,90.7*,15.3&30.2,68.6
O=C(NCCNCc1cccs1)c1ccccc1F,-0.9,-10.0,10.3,7.8,-0.6,-6.8,0.1,-6.7,-1.9,-3.4
N#C/C(=C\c1c(N2CCCCC2)nc2ccccn2c1=O)C(=O)NC1CCS(=O)(=O)C1 (configuration not stated),-15.4,-8.8,.,.,.,-1.4,0.8,-10.4,-16.9,-8.2

# Entries of single compounds, looked up by structure:
# COc1ccc(N2CCN(C(=O)Cc3ccc(C)cc3)CC2)cc1 reads ALR H2O2 inh = 79.6*; T cruzi inh = -6.6; rRNA inh HTS = 3.6; rRNA inh HTS OD600 = -6.0; rRNA inh HTS RFP = 3.7; LANA-H2B inh = -1.6; A1 inh = 0.5; Beta apoptosis = .; B2AR ag = 7.0; Calb FLC = 13.6
# COC(=O)c1ccc([N+](=O)[O-])cc1N1C(=O)C2C3CCC(C3)C2C1=O (configuration not stated) reads ALR H2O2 inh = .; T cruzi inh = -0.7; rRNA inh HTS = 14.9; rRNA inh HTS OD600 = 10.4; rRNA inh HTS RFP = -0.3; LANA-H2B inh = 1.1; A1 inh = -0.7; Beta apoptosis = -0.4; B2AR ag = -5.4; Calb FLC = 15.3

# The list continues:
SMILES,ALR H2O2 inh,T cruzi inh,rRNA inh HTS,rRNA inh HTS OD600,rRNA inh HTS RFP,LANA-H2B inh,A1 inh,Beta apoptosis,B2AR ag,Calb FLC
CN(C)/C=C1/OC(=O)C(C#N)=C1c1ccc(Cl)cc1,.,-7.9,2.2,4.0,7.7,0.3,-0.2,-0.5,6.8,-1.3
Cc1ccc(C)n1-c1ccc(-c2nnc3n2CCCCC3)s1,.,2.7,.,.,.,-3.0,0.1,-11.6,-5.3,2.4
COC(=O)c1cc(C(=O)CSc2nc(C)cc(C)n2)ccc1O,5.5,-1.3,.,.,.,7.9,0.4,-1.0,7.8,1.6
CCN1C(=O)[C@H]2[C@@H](c3ccc(Cl)cc3)N3C(=O)CN(CCOC)C(=O)[C@@]3(C)[C@H]2C1=O,3.4,-7.7,9.5,1.1,5.3,-5.9,-0.2,0.4,1.7,-13.6
Cc1cccc(/C=N/NC(=O)Cc2cccs2)c1,-13.8,-1.2,-19.4*,0.3*,-6.4*,-3.8,-0.3,4.2,-16.3,-16.3
O=C(NCc1ccccc1)C(c1ccncc1)N(C(=O)c1csnn1)c1cccc(F)c1 (configuration not stated),-9.1,-2.6,3.8,10.4,-1.6,4.6,-0.1,-7.2,-1.0,4.2
Nc1nc(N)nc(-c2ccccc2O)n1,.,-11.1,.,.,.,2.8,-0.3,-30.2,-1.3,1.4
Cc1cccc(S(=O)(=O)Nc2nc3ccccc3nc2Nc2cccc(C(=O)O)c2)c1,97.7*,1.6,-1.0,-13.0,-1.4,3.1,0.6,-2.7,5.4,-1.5
CC(C)OC(=O)CN1CCN(S(=O)(=O)c2cc(Cl)ccc2Cl)CC1,-17.5,.,.,.,.,-2.4,0.0,-1.3,10.9,.
COc1ccc(N(CC(=O)NN=C2CCN(C)CC2)S(=O)(=O)c2ccc(NC(C)=O)cc2)cc1,21.6,-0.2,5.6,8.7,0.9,1.5,0.0,.,-2.8,3.6
CCOC(=O)COc1ccc(Br)cc1C1NC(=O)NC(C)=C1C(=O)NCc1ccccc1 (configuration not stated),-2.2,-16.2,-2.9,5.5,1.7,66.6*,0.3,-4.2,0.1,-7.0
O=S(=O)(NCCc1ccc(Cl)cc1)c1cccc2cccnc12,0.9,37.2,-9.6,-20.1,0.8,-3.9,0.0,-13.1,0.1,17.9
Nc1ncnc(Oc2cccc3cccnc23)c1[N+](=O)[O-],-6.9,-10.3,21.5,12.9,-0.3,-1.4,0.2,-11.3,8.4,-3.4
C=CCN1c2ccccc2[C@]23C[C@@H](C(=O)OC)N(C(=O)c4ccc(Br)cc4)C2=NC(C(=O)OC)=C(C(=O)OC)[C@H]13,.,-17.6,8.9,7.1,0.0,-2.6,-1.0,-9.7,2.3,10.0
CCc1ccc(C(=O)COC(=O)CNC(=O)Cc2ccccc2)cc1,0.7,-2.7,4.3,3.9,1.6,2.4,-2.2,-4.9,3.6,-3.5
COc1cc2c(cc1C1NC(=S)NC(C)=C1C(N)=O)CCCC2 (configuration not stated),-5.4,14.8,12.1,10.3,-1.1,-3.1,0.8,-2.0,2.1,-19.9
CCOC(=O)c1c(C)c(C(=O)NCc2ccco2)c(C)n1Cc1ccccc1,5.9,-13.3,.,.,.,3.1,0.6,-1.1,-8.5,42.2
COc1ccc(C2CC(c3ccccc3)=NN2C(=O)COC(=O)C2CC2)cc1 (configuration not stated),-7.7,17.1,.,.,.,-1.4,0.3,-6.2,-5.6,-9.0
CCC(C(=O)NCCc1c[nH]c2ccc(C)cc12)c1ccccc1 (configuration not stated),21.5,-3.3,-4.2,1.6,1.2,-1.0,0.3,2.1,-2.8,6.2
O=S(=O)(NCC(c1cccnc1)N1CCc2ccccc2C1)c1ccccc1 (configuration not stated),-0.4,23.0,0.7,-5.8,-3.2,-1.1,0.3,-3.1,-0.3,2.5
COc1cc(CN2CCCCCC2)cc(OC)c1OC,.,19.5,13.6,7.5,-0.4,1.0,0.0,1.0,-1.5,-3.5
N#CC(C(=O)NC1CCCCC1)=C1CCCCC1,-1.9,11.2,.,.,.,4.8,0.6,2.5,-0.9,-4.7
O=C(O)CCCN=CC1=C(O)CNC1=O,1.4,-15.1,14.1,14.9,-0.3,9.5,0.3,-2.7,-3.9,-10.8
COC(=O)c1ccc(CSc2nnc3n(Cc4ccccc4OC)c(=O)c4ccccc4n23)o1,6.1,43.1,.,.,.,-1.3,-0.2,14.4,0.2,-4.5
Cc1ccc(COCCN2CCN(S(=O)(=O)c3ccccc3)CCC2=O)cc1,1.0,16.1,-3.2,6.0,3.3,1.9,0.9,2.6,1.2,-13.3
C[C@@]12CC(=O)NC1N(C(=O)c1ccccc1)C(c1ccccc1OC(=O)c1ccccc1)C2 (some centres not stated),-11.8,-1.8,.,.,.,-0.9,-0.8,-10.6,6.6,3.4
